A488 autofl: compound fluoresces in the A488 spectral region; compound autofluorescence, A488 spectral region, dye equivalency; stronger effect = higher value; max dye equivalency, M; hit rate 0.1% among 59,000; active = above 10 nM dye equivalent; inconclusive = 1 to 10 nM; inactive = 1 nM or less; about half of its hits are not listed in these tables;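 also: highest value over a series up to 38 µM; compound alone in buffer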
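Compound autofluorescence was read in 100 mM Tris pH 8.0 after 15 min at room temperature, ex 480 nm/em 540 nm. Intensities were converted to A488 dye-equivalent concentration using an on-plate six-point A488 standard curve.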
AID923: qHTS Assay for Allosteric/Competitive Inhibitors of Caspase-1: Spectroscopic Profiling in AFC Spectral Region; compound fluorescence, AFC spectral region (405/520 nm); almost no hit is shown here; Potency, µM (doses to about 57.5 µM), for inactives: at the highest dose fluorescence increase, hits mostly activators; hit rate 1.1% among 75,000; active = well fitted activation curve with a large enough effect; inconclusive = small, poorly fitted or top-dose-only effect;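 also: potency is read from the fitted curve at half-maximal effect; 0% is about no effect; scaled to a free AFC standard on each plate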
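Titrations up to 57 uM read every 20 sec for 3 min (405/520 nm) with 50 nM caspase 1 and 5 uM Ac-WEHD-AFC, pH 7.5 HEPES buffer. Fluorescence-vs-time intercept gave baseline, scaled against on-plate AFC standard.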
TSHR agonist: agonists of human thyroid stimulating hormone receptor | P16473 | HEK293-CNG-TSHR cells (CNG channel as cAMP sensor), membrane potential dye, cAMP | Potency, µM (titrated, usually from 57.1 µM), for inactives: at the top dose activation, actives largely listed as activators | hit rate 0.48% among 73,000 | AID 926; active = well fitted activation curve of enough size with the parental cells flat; inconclusive = any curve in the parental cells; inactive = parental cells flat and receptor cells flat or falling; also: potency is read from the fitted curve at half-maximal effect; % of control where 0% means no effect; weak receptor curves with flat parental cells got no call and are not listed
Target sequence (P16473 whole entry, looked up): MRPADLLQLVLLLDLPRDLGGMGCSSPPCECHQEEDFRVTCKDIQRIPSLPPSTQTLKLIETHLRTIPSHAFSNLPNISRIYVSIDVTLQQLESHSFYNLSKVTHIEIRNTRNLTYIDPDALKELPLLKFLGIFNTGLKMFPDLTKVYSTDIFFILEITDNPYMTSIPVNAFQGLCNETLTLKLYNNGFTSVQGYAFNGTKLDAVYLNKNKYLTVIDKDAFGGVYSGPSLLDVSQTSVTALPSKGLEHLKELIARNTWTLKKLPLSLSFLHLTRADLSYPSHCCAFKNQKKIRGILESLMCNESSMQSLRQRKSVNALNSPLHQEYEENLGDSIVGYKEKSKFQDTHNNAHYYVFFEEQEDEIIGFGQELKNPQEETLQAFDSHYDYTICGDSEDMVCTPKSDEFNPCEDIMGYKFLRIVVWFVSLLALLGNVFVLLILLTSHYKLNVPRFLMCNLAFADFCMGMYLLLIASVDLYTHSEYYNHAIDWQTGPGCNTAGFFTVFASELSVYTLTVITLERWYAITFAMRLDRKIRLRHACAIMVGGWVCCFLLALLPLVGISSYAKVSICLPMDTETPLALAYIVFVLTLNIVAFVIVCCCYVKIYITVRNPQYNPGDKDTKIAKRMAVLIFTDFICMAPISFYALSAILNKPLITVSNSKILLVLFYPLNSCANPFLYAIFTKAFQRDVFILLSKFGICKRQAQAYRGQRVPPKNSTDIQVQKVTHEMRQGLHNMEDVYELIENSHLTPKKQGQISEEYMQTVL
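HEK 293 cells stably expressing TSHR and a modified CNG channel, with CNG-only parental cells as counterscreen, were preloaded 60 min at room temperature with membrane potential dye containing 100 uM RO 20-1724. Compound exposure was 30 min, and depolarization was read as fluorescence at 590 nm.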
A647 fluor: compound fluoresces in the A647 spectral region; 59,000 tested, under 10 active; max dye-equivalent concentration, M; Compound fluorescence, A647 channel (570/671 nm), Tris buffer; AID 592; active means above 1 µM dye equivalent; inconclusive means 0.1 to 1 µM; inactive means 0.1 µM or less;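 also: values scaled relative to a standard on each plate; highest value over a series up to 38 µM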
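Buffer was dispensed, compounds and Alexa 647 standards were pin-transferred, and plates sat 15 min at room temperature. Intensity at 570/671 nm was then converted to dye-equivalent concentration using the plate's A647 standard curve.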
Resorufin fluor: compound fluoresces in the resorufin spectral region; Compound fluorescence, resorufin region 547/598 nm, buffer; stronger effect = higher value; max dye-equivalent concentration, M; hit rate 0.04% among 59,000; AID 588; active = above 10 nM dye equivalent; inconclusive = 1 to 10 nM; inactive = 1 nM or less; a few of its hits are not listed in these tables; also: highest value over a series up to 38 µM
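Intrinsic fluorescence profiled in the resorufin window (ex 547 nm, em 598 nm) after 15 min at room temperature in pH 8.0 Tris buffer (100 mM); responses normalized against a six-point resorufin standard series as dye-equivalent concentration.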
An asterisk follows results filed as active; i = inactive; ? = inconclusive; . = no result given; & = joins results of further samples; [ ] = remark or other dose. Not all compounds are listed; rates above refer to the full screens.

SMILES,A488 autofl,AID923,TSHR agonist,A647 fluor,Resorufin fluor
COc1ccc(OC)c(NC(=O)CSc2ccccc2)c1,i,-0.4%,28%,1e-09,i
CCOC(=O)c1ccc(NC(=O)NCCN2CCCCC2)cc1,.,0.1%,-1%,.,.
CCCc1nnc(NC(=O)C(C)N2C(=O)C3C4C=CC(C4)C3C2=O)s1 (stereo not drawn),i,0.3%,?,1.9e-08,i
CC(C)(C)NC(=O)Cn1c(SCC(=O)N2CCCCCC2)nc2ccccc21,i,0.0%,3%,2.9e-08,i
Cc1cc(-n2[nH]c(C)c(C)c2=O)nc(-c2ccccc2O)n1,i,0.0%,.,1.9e-08,i
CCCN(CCC)CCNS(=O)(=O)c1ccc2c(c1)oc(=O)n2C,i,0.1%,26%,3.4e-08,i
CCOc1ccc(-n2cnnn2)cc1S(=O)(=O)NCc1ccccc1,i,0.4%,7%,9.4e-09,i
Cc1ccc(CCNC(=O)c2coc3nc4ccccc4nc23)cc1,i,14%,?,1.2e-08,i
CCOc1ccccc1NC(=O)c1cc(Cl)ccc1NC(=O)c1ccco1,i,1.7%,?,3.6e-09,i
Nn1c(SCC(=O)NC2CCCCC2)nnc1-c1ccc(Cl)cc1,i,-1.7%,-2%,1e-09,i
C[C@H]1[C@H](C)CC[C@]2(C(=O)O)CC[C@]3(C)C(=CC[C@@H]4[C@]5(C)C[C@H](O)[C@@H](O)[C@@](C)(CO)[C@@H]5[C@H](O)C[C@@]43C)[C@H]12,i,-1.6%[11.5 µM],?,3.1e-08,i
COc1cccc(-c2ccc3ncnc(N(C)Cc4ccco4)c3c2)c1,i,1.3%,?,4.2e-08,i
CSc1c(C#N)c(N)c(C#N)c2c1COC(C)(C)C2,i,-0.9%,14%,1e-09,i
CCCN1C2CCCC1CC(NC(=O)c1cc(OC)c(OC)c(OC)c1)C2 (stereo not drawn),i,-0.4%,?,2e-09,i
Cc1ccc(N(C(=O)Cn2nnc3ccccc32)C(C(=O)NC2CCCCC2)c2cn(C)nc2C)cc1 (stereo not drawn),i,-1.9%,-2%,5e-09,i
Cc1ccccc1NS(=O)(=O)c1cc(C(=O)NCc2ccco2)ccc1C,i,1.0%,22%,1e-09,i
COc1ccc(NC(=O)C2CCN(C(=O)NC3CCCCC3)CC2)c(OC)c1,i,1.5%,-1%,5.1e-08,i
COc1cc(NC(=O)CN(c2cc(C)cc(C)c2)S(=O)(=O)c2c(C)noc2C)cc(OC)c1,.,-2.6%,2%,.,.
Cc1cc(=O)[nH]c(SCC(=O)Nc2ccc(Br)cn2)n1,i,-1.2%,4%,1e-09,i
CCOC(=O)CN1CC23C=CC(O2)C(C(=O)Nc2ccc(C(C)=O)cc2)C3C1=O (stereo not drawn),.,-2.1%,1%,.,.
Cc1cc(C(F)(F)F)n2nc(C(=O)O)c(Cl)c2n1,i,-3.0%,0%,1e-09,i
CC(C)NS(=O)(=O)c1ccc(CCC(=O)NCc2ccco2)cc1,i,0.5%,2%,1.1e-08,i
COc1ccc(OC)c(C(C)NC(=O)c2ccco2)c1 (stereo not drawn),.,-0.2%,4%[11.4 µM],.,.
Cn1c(=O)c2cc(S(=O)(=O)NCCC(=O)NCCc3ccc(Cl)cc3)ccc2n(C)c1=O,i,0.1%,0%,1e-09,i
COc1ccc(CCn2c(NCCCN3CCOCC3)nc3c2c(=O)[nH]c(=O)n3C)cc1,i,-0.4%,.,3e-08,i
COc1nc(-c2ccccc2)ccc1-c1noc(-c2cccs2)n1,i,4.4%,8%,3.1e-08,i
COC(=O)[C@@H](NC(=O)NCc1ccccc1Cl)C(C)C,i,-2.0%,9%,2.2e-08,i
O=C(O)CN=C(NS(=O)(=O)c1ccccc1)c1ccccc1,.,1.2%,-2%,.,.
COc1ccc(C)cc1S(=O)(=O)N1CCN(Cc2ccccc2)CC1,i,0.9%,1%,4e-08,i
CCOC(=O)C1CCN(CC(=O)N2C(C)CCCC2C)CC1 (stereo not drawn),i,1.5%,0%,4.9e-08,i
CCCCC(=O)NC(Nc1cc(C)ccn1)(C(=O)OCC)C(F)(F)F (stereo not drawn),i,1.2%,4%,1e-09,i
O=C(NCC1CCCO1)C1CCN(C(=O)c2ccc(Br)cc2)CC1 (stereo not drawn),i,0.8%,2%,5.9e-09,i
O=C(CSc1nnc(-c2cccnc2)n1C1CCCCC1)NC1CCCCC1,i,0.2%,0%,1e-09,i
CC(C)=CCc1c2c(c3occ(-c4ccc(O)c(O)c4)c(=O)c3c1O)C=CC(C)(C)O2,i,-1.9%[11.5 µM],1%[11.4 µM],1e-09,i
COCCCNC(=O)COc1ccc(S(=O)(=O)Nc2ccccc2)cc1,i,1.2%,2%,1.1e-08,i
COC(=O)C(C)NC(=O)C12CC3CC(CC(C3)C1)C2 (stereo not drawn),i,-0.6%,29%,2e-08,i
O=C(c1cc(Cl)cc(Cl)c1)N1CCOCC1,i,1.3%,-4%,1e-09,i
C(=N/Nc1ccccn1)/c1cccnc1,i,3.8%[11.5 µM],-2%[11.4 µM],1.8e-08,i
Cc1nc2ccccn2c1C(=O)NCc1cccnc1,i,1.1%,1%,2.5e-08,i
Cc1c(C=NCCOCc2ccccc2)cnn1C,i,.,.,8.7e-08,i
O=C1CSC(c2cn(-c3ccccc3)nc2-c2ccc3c(c2)OCCO3)N1CCN1CCOCC1 (stereo not drawn),i,-1.1%,14%,3.4e-08,i
N#CCCSc1ncnc2c1oc1ccccc12,i,-0.2%,11%,2.3e-09,i
Cc1nnc(OCc2nc3ccccc3n2C)c2ccccc12,.,2.4%,-5%,.,.
CC(C)C[C@H](NC(=O)Nc1ccc(S(N)(=O)=O)cc1)C(=O)O,i,1.7%,-6%,1.9e-08,i
CN(C)/C=C1\N=C(c2ccc(Cl)cc2Cl)OC1=O,i,.,.,7.3e-08,i
COC(=O)C1=C(N)Oc2cc(C)n(Cc3ccco3)c(=O)c2C1c1cccc(Cl)c1 (stereo not drawn),i,-2.5%,?,3.2e-09,i
CC(C)N(Cc1nc(-c2ccc(Cl)cc2)no1)C(=O)CCCN1C(=O)c2ccccc2C1=O,.,1.1%,?,.,.
Cc1ccc(CNC(=O)CCCn2c(=O)c3ccccc3n(CC(=O)NC3CCCC3)c2=O)cc1,i,1.8%,8%[11.4 µM],1e-09,i
Cc1oc(C(=O)O)cc1COc1ccc2c3c(c(=O)oc2c1C)CCCC3,.,0.6%,26%[11.4 µM],.,.
COC(=O)Cn1nc(-c2ccc(C)c(S(=O)(=O)N(C)C)c2)c2ccccc2c1=O,.,4.1%,24%[11.4 µM],.,.
CCNC(=O)N(C(=O)NCC)n1c(C)nnc1C,i,.,.,1e-09,i
Cc1ccc(C(=O)Nc2ccc3c(c2)nc2n3CCSC2)cc1,i,1.0%,-2%,2e-08,i
CC(C)C(NC(=O)OCc1ccccc1)C(=O)OCC(=O)NCc1ccco1 (stereo not drawn),i,-0.6%,4%,1.2e-08,i
c1ccc(-c2nc(NCc3cccnc3)c3oc4ccccc4c3n2)cc1,i,1.2%,.,2.3e-08,i
Cc1nc(SCC(=O)Nc2cc(C)on2)c2c(=O)n(C)c(=O)n(C)c2n1,.,3.0%,-1%,.,.
CCCc1c(O)nc(SCCN(CCC)CCC)[nH]c1=O,i,-4.2%,?,4.6e-09,i
CCOC(=O)c1cnn(-c2cccc(Cl)c2)c1N,i,0.8%,-1%,1e-09,i
CCC(Sc1nc2cc3c(cc2c(=O)n1Cc1ccco1)OCO3)C(=O)Nc1ccccc1OC (stereo not drawn),i,0.4%,18%,6.6e-09,i
CC(=O)c1c(NCc2ccccc2)nc(=O)n(-c2ccccc2)c1C,.,-2.6%,14%,.,.
CCCCOCCCNC(=O)c1ccc2c(c1)OCO2,.,1.1%,15%[11.4 µM],.,.

(next part)
SMILES,A488 autofl,AID923,TSHR agonist,A647 fluor,Resorufin fluor
COc1cccc(C(=O)Cn2c(N3CCOCC3)nc3c2c(=O)n(C)c(=O)n3C)c1,i,-0.8%,2%,4.9e-09,i
NCCCCC(=O)O,i,-2.3%&-4.5%,3%,3e-09,i
CCn1c(-c2ccco2)nc2ccccc21,i,4.4%,4%,6.5e-09,i
CCOC(=O)c1ccc(NC(=O)NC(C)C2CCCO2)cc1 (stereo not drawn),i,-0.3%,-8%,3.6e-09,i
COc1ccc(S(=O)(=O)N2CCCN(CC(=O)C(C)(C)C)CC2)cc1,i,6.6%,-2%,3.1e-08,i
CC1CCN(C(=O)c2ccc(COc3ccccc3Cl)o2)CC1,i,1.5%,15%,1.9e-08,i
COC(=O)c1cc(NC(=O)CN(c2ccc3c(c2)OCO3)S(C)(=O)=O)ccc1Cl,i,-1.4%,-6%,2.7e-09,i
COc1ccc(S(=O)(=O)N2CCCCCC2)cc1C(=O)OCc1c(C)noc1C,i,-0.1%,11%,2.5e-09,i
COc1ccc(S(=O)(=O)N2CCN(C3CCN(Cc4ccccc4)CC3)CC2)cc1,.,2.6%,5%,.,.
COC(=O)c1ccc(Nc2cc(C)nc(-c3ccccc3O)n2)cc1,i,.,.,6.2e-08,i
C1CNCCNCCCNCCNC1,i,.,.,3.9e-08,i
CC1CCCC(NC(=O)C2CCN(S(=O)(=O)N3CCC4(CC3)OCCO4)CC2)C1C (stereo not drawn),i,-1.0%,1%,8.7e-09,i
CCOC(=O)C1CCN(C(=O)CSc2cc(=O)n(CC)c3ccccc23)CC1,i,-0.2%,?,3.8e-08,i
CCc1sc(C(=O)NC)cc1Br,i,4.3%,-9%,1e-09,i
OCc1ccccc1OCCOc1ccc(Cl)c2cccnc12,i,-1.1%,5%,1.9e-08,i
Cc1cccc(Nc2nc(-c3ccccn3)cs2)n1,i,1.0%,-9%,2.1e-09,i
COC(=O)C1=C(N)N(c2ccc(F)cc2)C2=C(C(=O)CCC2)C1c1ccc2c(c1)OCO2 (stereo not drawn),i,1.3%,12%,4.8e-09,i
COc1cccc(NS(=O)(=O)c2ccc3c(c2)n(C)c(=O)c(=O)n3C)c1,i,0.8%,-2%,1e-09,i

A different layout for part of the listing above:
NCCCCC(=O)O
  A488 autofl: i; AID923: -2.3%&-4.5%; TSHR agonist: 3%; A647 fluor: 3e-09; Resorufin fluor: i
CCn1c(-c2ccco2)nc2ccccc21
  A488 autofl: i; AID923: 4.4%; TSHR agonist: 4%; A647 fluor: 6.5e-09; Resorufin fluor: i
CCOC(=O)c1ccc(NC(=O)NC(C)C2CCCO2)cc1 (stereo not drawn)
  A488 autofl: i; AID923: -0.3%; TSHR agonist: -8%; A647 fluor: 3.6e-09; Resorufin fluor: i
COc1ccc(S(=O)(=O)N2CCCN(CC(=O)C(C)(C)C)CC2)cc1
  A488 autofl: i; AID923: 6.6%; TSHR agonist: -2%; A647 fluor: 3.1e-08; Resorufin fluor: i

Bioassay records (PubChem BioAssay)
